KSHV LANA nucl: LANA-nucleosome interaction inhibition; FITC-LANA1-23 / chicken nucleosome fluorescence polarization; hits give low values; z-score (no concentration beside the values); actives 0.3% (n = 51,000); AID 720717;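 active = both repeat wells score below -2 in polarization z-score versus plate sample wells, excluding overly bright wells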;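 also: 100 nL library stock added to about 30 µL; numbers are from one replicate; some results filed as inactive read as strong as hits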
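Assay system: purified chicken nucleosomes with FITC-labelled LANA N-terminal peptide (1-23) / Probe or stimulus: 50 nM FITC-LANA1-23 probe / Compound dosing: pin-transferred compound, 100 nL / Times: compound with peptide–nucleosome mix 10–45 min at room temperature / Technique: fluorescence polarization, 480 nm excitation, 535 nm parallel and perpendicular emission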
Ab BasE inh: BasE siderophore biosynthesis inhibition; purified BasE, fluorescence polarization binding displacement; inhibition, % (test concentration not listed); actives 0.1% (n = 84,000); AID 485350;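 active = both replicates above 25% with normal brightness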;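 also: 0% = negative plate control signal and 100% = positive plate control signal; stock transfer was 100 nL into about 30 µL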
Active calls of the source: *; · = no result given.

SMILES	KSHV LANA nucl	Ab BasE inh
CCN(CC)C(=O)CSc1ccc(S(=O)(=O)N2CCN(C)CC2)cn1	·	4.1
CCC(C)NC(=O)CN1N=C(c2ccc(Cl)cc2)CCC1=O (configuration not stated)	-1.6	1.5
CCN(C(=O)COc1ccc(Br)cc1F)C1CCS(=O)(=O)C1 (configuration not stated)	·	-0.6
COc1ccc(C(=O)NCc2ccc(-c3nc4ncccc4o3)cc2)c(OC)c1	-1.5	-0.2
CNC(=O)c1nn(-c2ccccc2)nc1CO	0.74	-0.9
O=C1NCCCCC1NS(=O)(=O)c1cc(S(=O)(=O)c2ccccc2)cs1 (configuration not stated)	-0.089	0.2
CC(C)(C)c1cc(=O)[nH]c(SCc2ccccc2)n1	1.5	·
FC(F)Oc1ccc(C2N=C(c3ccccc3)NO2)cc1 (configuration not stated)	·	0.7
Cc1ccccc1OCC(=O)N(Cc1nnc(-c2ccc(Cl)cc2)o1)C(C)C	·	0.2
O=C(O)CCn1nc(Nc2ccccc2)n(-c2ccccc2)c1=S	·	0.0
C=CCNC(=S)Nc1ccc(N2CCN(c3ccc(C(F)(F)F)cn3)CC2)nc1	-0.51	0.2
NN(CCO)C(=S)NCc1ccc(Cl)cc1	·	0.8
O=C(Nc1ccc(N2CCOCC2)cc1)c1ccccc1	-0.17	0.6
Cc1nc2nncn2c(NCCC(C)C)c1C	0.055	-3.1
O=C(O)c1ccc(-c2nc3ccccc3s2)cc1	0.39	0.7
CNS(=O)(=O)c1ccc(Cl)cc1	·	1.5
O=C(NCc1nc(-c2ccc(C(F)(F)F)cc2)no1)Nc1ccc(F)cc1F	·	1.3
CCOC(=O)Cc1csc(NC(=O)Cc2ccccc2)n1	-0.057	2.5
COc1ccc(C2N(C(C)=O)CCCN2S(=O)(=O)c2ccc(C)cc2)cc1 (configuration not stated)	-0.35	-0.6
COc1cccc(/C=N/n2cnnc2)c1OC	-0.68	-2.6
CCS(=O)(=O)c1ccc2oc(Nc3ccc(C(C)C)cc3)nc2c1	·	1.3
COc1ccccc1NC(=O)CCN1CC(C)CC(C)C1 (configuration not stated)	0.64	-2.8
CC(=O)n1c(O)c(/C=C2\C=c3ccc(C)cc3=NC2=O)sc1=N	·	-7.5
COc1cccc(C(=O)Cn2c(=O)n(CCC(=O)NCC3CCCO3)c(=O)c3cc(OC)c(OC)cc32)c1 (configuration not stated)	-0.54	1.0
COC(=O)c1c(N)n(C2CCCC2)c2nc3ccccc3nc12	-0.41	-2.1
O=C(NCc1ccc2c(c1)OCO2)c1ccc(CN2CCOCC2)cc1	-0.75	1.3
Cc1sc2nc3c4ccccc4c(N4CCC(C)CC4)nn3c(=O)c2c1C	·	0.2
O=c1[nH][nH]c(=O)c2ncccc12	-0.55	-1.2
CCn1cc(C(=O)N2CCC(C(=O)OC)CC2)c(=O)c2ccc(C)nc21	·	-4.9
O=C1CS/C(=N\N2CCOCC2)N1Cc1ccccc1	-0.15	-0.2
O=C(O)CC1NC(=O)N(c2ccccc2)C1=O (configuration not stated)	-0.21	1.4
NC(=O)c1c(C(F)(F)F)cc(C(F)(F)F)cc1C(F)(F)F	-0.42	-0.2
Cc1noc(/C=C/N(C)C)c1S(=O)(=O)N1CCC(C(=O)O)CC1	-1.1	0.6
CCOc1ccc(N(C(C)C(=O)N(C)Cc2ccccc2)S(C)(=O)=O)cc1 (configuration not stated)	·	0.4
COc1cc(-c2nnc(COc3cc(C(F)(F)F)cc(C(F)(F)F)c3)o2)cc(OC)c1OC	·	1.0
Nn1c(SCCN2C(=O)c3ccccc3C2=O)nnc1-c1ccccc1Br	·	-0.9
O=C(COC(=O)c1ccc[nH]c1=O)NC(c1ccccc1)c1ccccc1	·	2.0
CCC(C)NC(=O)Cn1cnc2c1c(=O)n(C)c(=O)n2C (configuration not stated)	·	1.7
CN(C(=O)CS)c1nc2c3ccccc3ncn2n1	·	-31
CN(c1nc(N)c(C#N)c(CC#N)c1C#N)C1CCS(=O)(=O)C1 (configuration not stated)	·	-1.1
CCCOc1cc(C(N)=O)ccc1OC	·	3.1
C=CCn1c(/N=C/c2ccc3c(c2)OCO3)nc2ccccc21	0.52	0.2
O=c1oc2ccccc2c(O)c1Cc1ccccc1	-0.18	3.3
COc1ccc(N=c2oc3ccc(Cl)cc3cc2C(=O)NCc2ccco2)cc1OC	0.72	-0.1
Cc1cc(C)nc(SCCS(=O)(=O)c2ccc(C(C)(C)C)cc2)n1	·	2.0
CC(C)C(=O)Nc1ccc(C2=Nn3cc(-c4ccccc4)nc3SC2C)cc1 (configuration not stated)	·	0.5
O=C(O)CNC(=O)c1ccc(-c2ccccc2)cc1	·	0.9
O=C1CN(c2ccccc2)S(=O)(=O)c2ccccc2N1	-0.46	2.1
CN1C(=O)N(c2ccc(Cl)cc2)C(C)(O)CC1(C)C (configuration not stated)	·	1.6
Cc1ccc(S(=O)(=O)N2CCSC2C(=O)O)cc1 (configuration not stated)	1.1	-0.7
Cc1cccc(/C=C2\SC(=O)N(CCC(=O)Nc3ccccc3N3CCOCC3)C2=O)c1	·	0.9
COc1cc(C(=O)OCC(=O)N2CCCC2=O)cc(OC)c1C	·	1.4
CCCn1c(O)c(C2=NC(=S)NC2=O)c2ccccc21	1.6	-2.5
Cc1[nH][nH]c(=O)c1N=Nc1ccc(S(=O)(=O)N2CCCCC2)cc1	0.092	0.5
COc1ccc(-n2nc(C(=O)O)c(C)c(C#N)c2=O)cc1	1.2	-4.0
Cn1c(=O)c2c(ncn2CC(=O)Nc2ccncc2)n(C)c1=O	·	2.2
Cc1ccc(CSc2nnc(-c3cnccn3)s2)cc1	-1.7	-0.3
C=CCNC(=O)CN1CCC(n2c(C)nc3cc(C(F)(F)F)ccc32)CC1	-0.03	-1.0
COc1cc(S(=O)(=O)N2CCN(Cc3ccc4c(c3)OCO4)CC2)c(OC)cc1C	-2.4	2.1
COc1ccc2c(CC(=O)OCC(=O)Nc3c(C)n(C)n(-c4ccccc4)c3=O)coc2c1	·	0.6
Additional records:
SMILES	KSHV LANA nucl	Ab BasE inh
O=C1C=C(c2ccccc2)OC2(CCCCC2)O1	0.94	-3.0
CCOC(=O)c1oc2ccccc2c1COC(=O)[C@H](C)NC(=O)c1ccco1	·	-0.4
CC1CN(C(=O)CCC(=O)O)CC(C)O1 (configuration not stated)	0.73	-1.5
Nc1nc(C2COc3ccccc3O2)ncc1S(=O)(=O)c1ccc(Cl)cc1 (configuration not stated)	1.4	-1.3
O=C(O)CCSCCc1ccncc1	-0.72	-1.0
CCOC(=O)C1CCN(C(=O)COC(=O)c2ccc(Br)cc2)CC1	·	-2.2
COc1ccc(C(CCN)C(C)C)cc1 (configuration not stated)	-0.99	-9.0
Cc1ccc(S(=O)(=O)N(C)c2ccccc2)cc1	·	0.9
C1CCCCCC2(CCCCC1)OCC(CN1CCCCC1)O2 (configuration not stated)	·	0.0
CCN(CC(=O)NCc1cccs1)C(=O)c1ccc2c(c1)SC1=NS(=O)(=O)CCN12	·	0.9
NC(=O)c1ccccc1NC(=O)/C=C/c1ccccc1	-0.75	-2.5
CCOC(=O)C1=NN(C(C)=O)C2C(=O)N(Cc3ccccc3)C(=O)C12 (configuration not stated)	-0.33	0.2
O=C(CCCc1nnc2c(=O)n(-c3ccc(Cl)cc3)ccn12)N1CCN(c2ccccc2)CC1	0.4	2.2
N#C/C=C(\c1ccc(F)cc1)n1ccnc1	·	0.3
COC(=O)c1sc(N)c(C(=O)OC)c1CSc1n[nH]c(N)n1	·	-0.4
CN(C)S(=O)(=O)c1ccc(C(=O)NC(=O)CSc2ccccc2)cc1	·	-1.6
COc1ccc(OC)c(CCNC(=O)CCc2nnc3ccc(N4CCN(C)CC4)nn23)c1	1.2	-2.4
CN(C(=O)/C=C/C(=O)O)C1CCCCC1	·	-3.6
CCOC(=O)c1cc2c(nn3cc(C(=O)c4ccccc4O)cnc23)[nH]c1=O	·	3.3
N#Cc1cc(N)ccc1Sc1ccccc1	-0.14	·
COC(=O)CCc1n[nH]c(=S)[nH]c1=O	-0.72	1.6
O=C(NC1CCCC1)c1ccc(CS(=O)(=O)c2ccc(Cl)cc2)o1	1.3	-0.5
O=C(NC1CCCCC1)c1cccs1	1.9	-3.7
NC(=O)c1ccc(OCC(=O)c2ccc3c(c2)OCCO3)cc1	·	-3.0
Cn1sc(=O)c2ccccc21	0.2	0.5
O=C1CNC(=O)N1c1ccccc1	·	5.2
Cc1ccc(NC(=S)Nc2ccc3nc(-c4ccco4)c(-c4ccco4)nc3c2)cc1	2	-0.8
NCC(O)CN1CCN(Cc2ccccc2)CC1 (configuration not stated)	0.26	-3.0
CCCC(=O)C1C(=O)CC(C)(C)C(c2cc(C)no2)C1=O (configuration not stated)	·	1.5
Cc1c(C)c(C)c(CSC2=NCC(C)N2)c(C)c1C (configuration not stated)	·	-3.0
COc1ccc(N2C(=O)CC(N3CCSCC3)C2=O)cc1 (configuration not stated)	-0.94	·
O=C(CSc1n[nH]c(=O)n1-c1cccnc1)c1cc(-c2ccccc2)no1	0.39	0.0
CCOc1ccccc1C(=O)NCc1n[nH]c(=O)c2ccccc12	-0.56	2.6
CC(C)(CNC(=O)c1n[nH]c2ccccc12)N1CCCCC1	·	-0.4
Cn1c(SCCCCN2C(=O)c3ccccc3C2=O)nnc1-c1ccccc1	·	0.7
Brc1cnc(N2CCCCC2)nc1N1CCOCC1	·	2.2
C=CCSc1nc(N)c2c(C)c(C(=O)O)sc2n1	-0.34	1.6
CC1=C(C(=O)Nc2ccccn2)C(c2ccc(C)cc2)C2=C(CC(C)CC2=O)N1 (configuration not stated)	-0.6	-1.4
N#Cc1c2c(c(Nc3ccccc3)n3c1nc1ccccc13)CCC2	·	3.5
Cc1nc(N2CCCC2)[nH]c(=O)c1Cc1c(F)cccc1Cl	0.078	·
O=C(Nc1cccc(NC(=S)NC(=O)c2ccco2)c1)c1ccccc1	·	1.2
c1csc(-c2nc(NC3CC3)c3ccccc3n2)c1	·	1.1
CCN1C(=O)C2C(c3ccco3)NC(C(=O)OC)(c3ccccc3)C2C1=O (configuration not stated)	-0.15	3.6
O=C1N=C(N2CCOCC2)S/C1=C1\C(=O)N(Cc2ccc(Cl)cc2)c2ccccc21	-0.33	-0.6
CSC(=NC1CCCCC1)NS(=O)(=O)c1ccccc1	·	-2.4
CCCCN(C)Cc1c(O)ccc2c(=O)c(-c3ccccc3OC)c(C(F)(F)F)oc12	·	1.2
CCCNS(=O)(=O)c1ccc(N2CCCCS2(=O)=O)cc1	0.32	0.2
CCN(CC)c1ccc2c(c1)OC(=O)N(c1ccc(Cl)c(Cl)c1)P2(=O)N1CCOCC1 (configuration not stated)	·	0.3
COC(=O)c1ccc(-c2nc(NC(C)=O)c3c(=O)oc4ccccc4c3n2)cc1	0.18	4.7
CN(C1CCCCC1)S(=O)(=O)c1cccc(C(=O)Nc2ccc3c(c2)OCCO3)c1	·	3.5
Clc1cccc(CN2CN(Cc3ccccc3)c3nc4ccccc4n3C2)c1	·	2.6
CCOC(=O)Nc1ccc2c(Cn3nnc(-c4ccc(Cl)cc4)n3)cc(=O)oc2c1	·	-0.5
CC(C)c1ccccc1Oc1coc2cc(OCC(=O)NC3CCCCC3)ccc2c1=O	·	2.2
NC(=O)CN1C(=O)CC(c2ccccc2)=Nc2ccccc21	-0.92	1.2
CN(C)C(=O)c1ccccc1-c1ccccc1	-1.6	-0.3
CCSc1nc2ccc(C)cc2cc1C#N	-0.51	-1.2
Cc1ccc(CNc2ccc3c(c2)nc(C)n3C)cc1	0.28	-1.2
COc1ccc(NC(=O)CN2CCCn3nc(C)cc32)cc1	-0.004	1.3
CCOC(=O)C1=C(C)Nc2ccccc2N=C1NC(=O)Cc1ccc(OC)cc1	·	1.0
CNC(=O)CSc1nnc(-c2cccc(S(=O)(=O)N3CCCC3)c2)n1-c1ccccc1	·	-0.2
CCOc1ccc(CN(C)CC(O)COc2cccc(Br)c2)cc1 (configuration not stated)	·	-2.9
O=S(=O)(NCc1ccc2c(c1)OCO2)c1ccc(N2CCOCC2)nc1	0.63	-1.7
O=c1[nH]c(=O)c2nc3ccccc3nc2[nH]1	0.5	7.5

Arranged by molecular weight (highest first): part of the list above
SMILES	KSHV LANA nucl	Ab BasE inh
O=C1N=C(N2CCOCC2)S/C1=C1\C(=O)N(Cc2ccc(Cl)cc2)c2ccccc21	-0.33	-0.6
CC(C)c1ccccc1Oc1coc2cc(OCC(=O)NC3CCCCC3)ccc2c1=O	·	2.2
CCOC(=O)Nc1ccc2c(Cn3nnc(-c4ccc(Cl)cc4)n3)cc(=O)oc2c1	·	-0.5
CCOC(=O)C1=C(C)Nc2ccccc2N=C1NC(=O)Cc1ccc(OC)cc1	·	1.0
COC(=O)c1ccc(-c2nc(NC(C)=O)c3c(=O)oc4ccccc4c3n2)cc1	0.18	4.7
O=S(=O)(NCc1ccc2c(c1)OCO2)c1ccc(N2CCOCC2)nc1	0.63	-1.7
CCN1C(=O)C2C(c3ccco3)NC(C(=O)OC)(c3ccccc3)C2C1=O (configuration not stated)	-0.15	3.6
O=C(Nc1cccc(NC(=S)NC(=O)c2ccco2)c1)c1ccccc1	·	1.2
CCCNS(=O)(=O)c1ccc(N2CCCCS2(=O)=O)cc1	0.32	0.2
CSC(=NC1CCCCC1)NS(=O)(=O)c1ccccc1	·	-2.4
COc1ccc(NC(=O)CN2CCCn3nc(C)cc32)cc1	-0.004	1.3
NC(=O)CN1C(=O)CC(c2ccccc2)=Nc2ccccc21	-0.92	1.2
Cc1ccc(CNc2ccc3c(c2)nc(C)n3C)cc1	0.28	-1.2
CCSc1nc2ccc(C)cc2cc1C#N	-0.51	-1.2
CN(C)C(=O)c1ccccc1-c1ccccc1	-1.6	-0.3
O=c1[nH]c(=O)c2nc3ccccc3nc2[nH]1	0.5	7.5

Screens (PubChem BioAssay)

Not all compounds are listed; the hit share may differ from the screen's.
